# Assay outcomes (PubChem)
# VACV Venus inh: vaccinia inhibition (Venus reporter) | Vaccinia virus Venus reporter expression, fluorescence | Potency, µM (doses to about 36.5 µM), for inactives: at the top dose activity change, negative = inhibition, most hits filed as inhibitors | hit rate 0.46% among 330,000; active means well fitted inhibition curve with a large enough effect; inconclusive means small, poorly fitted or top-dose-only effect; inactive means no such curve, though single readings can be large or run the other way; tested in A549 cells; further: nearly all actives have a fitted effect of over 30% in size; inactives centre near -10
# Vaccinia mCherry: vaccinia inhibition (mCherry reporter); Vaccinia virus mCherry reporter infection, fluorescence; about a quarter of the inactives have no number; Potency, µM (top dose mostly 36.5 µM), for the others: top-dose activity change, negative = inhibition, hits mostly inhibitors; hit rate 0.63% among 310,000; active = well fitted inhibition curve with a large enough effect; inconclusive = small, poorly fitted or top-dose-only effect; inactive = no such curve, though single readings can be large or run the other way; tested in A549 cells; further: nearly all actives have a fitted effect of over 35% in size; inactives centre near -10
# The depositor's hits bear a star; i = inactive; ? = inconclusive; . = not tested or not shown; & = joins results of further samples; [ ] = dose if it differs, or a comment. On the % scale 0 is the no-effect control and ±100 the full control effect; potency means the concentration at half of the fitted maximal effect. Hits appear at their usual frequency. Share with any hit: about 0.88%.
# Start of the listing, in advance, four compounds:
compound	VACV Venus inh	Vaccinia mCherry
O=C(O)c1cccc(NS(=O)(=O)c2cc(S(=O)(=O)c3ccc(Cl)cc3)ccc2Cl)c1	-13%	-6%
CC(C)(C)NCc1ccccc1OCc1cccs1	-11%	-19%
COc1cc(C(=O)Nc2ccc3c(c2)CCN3C(C)=O)cc(OC)c1OC	-20%	?
CCCn1ncc(CN2CCC(CO)(CC3CCCCO3)CC2)c1C (configuration not stated)	-15%	i

# The list itself, from the first entry:
compound	VACV Venus inh	Vaccinia mCherry
O=C(O)c1cccc(NS(=O)(=O)c2cc(S(=O)(=O)c3ccc(Cl)cc3)ccc2Cl)c1	-13%	-6%
CC(C)(C)NCc1ccccc1OCc1cccs1	-11%	-19%
COc1cc(C(=O)Nc2ccc3c(c2)CCN3C(C)=O)cc(OC)c1OC	-20%	?
CCCn1ncc(CN2CCC(CO)(CC3CCCCO3)CC2)c1C (configuration not stated)	-15%	i
CCOC(=O)c1c(NC(=O)CSc2nnc(-c3ccncc3)n2Cc2ccco2)sc(C(C)=O)c1C	-8%	.
c1ccc(SCCOCCN2CCc3ccccc3C2)cc1	1%	-9%
c1ccc(CCn2nnnc2C(c2cccnc2)N2CCN(c3ccccc3)CC2)cc1 (configuration not stated)	-9%	-15%
O=[N+]([O-])c1ccc(C(=Nc2ccccc2)N2CC2)cc1	?	?
COc1cc2nc(N3CCCN(C)CC3)nc(NC3CCN(C)C3)c2cc1OC (configuration not stated)	11µM*	?
COC(=O)C1=C(C(=O)OC)[C@@H]2N(Cc3ccccc3)c3ccccc3[C@@]23C[C@@H](C(=O)OC)N(C(=O)c2ccc(Br)cc2)C3=N1	10µM*	?
Cc1cc(NC(=O)CSc2nnnn2-c2cc(Cl)ccc2C)no1	-7%	-11%
O=C(CCS(=O)(=O)c1ccccc1)Nc1nc(-c2cccs2)cs1	4µM*	?
CN1C[C@@H]2C(c3ccccc3)C3(c4ccccc4)CC2(C3)[C@H]1c1ccccc1 (some centres not stated)	-6%	-14%
O=C(c1ccccc1[N+](=O)[O-])N1CCN(c2ccc(N3CCOCC3)nn2)CC1	-16%	i
C[C@]12CCC3C(CC[C@H]4C[C@@H](O)CC[C@]34C)C1=CC[C@@H]2O (some centres not stated)	-14%	i
COc1ccc(-c2cc3ccc(O)c(CN4CCCCC4C)c3oc2=O)cc1OC (configuration not stated)	-12%	-9%
Cc1ccc(S(=O)(=O)NCCC(=O)Nc2cc(S(=O)(=O)N(C)C)ccc2C)cc1C	-1%	-24%
COc1ccc(-c2sc3ccccc3c2/C=C/c2ccc(OC)c(OC)c2)cc1	-8%	0%
ClCCn1c(CCl)nc2ccc(Cl)cc21	-3%	?
Cc1nc2ccccc2n1CCc1nc2c3ccccc3nc(SCc3ccccc3F)n2n1	-9%	-9%
CCc1nnc(NC(=O)CSc2nc(C)cc(C)c2C#N)s1	-4%	-21%
COc1ccc(C(=O)Nc2ccccc2C(=O)N/N=C/c2ccccc2OC)cc1	-12%	-20%
COc1ccc(NC(=O)CSc2nc3ccsc3c(=O)n2CCC(=O)O)cc1	-8%	i
NCCOc1ccccc1OCCN	-9%	-8%
Cc1ccc(/C=N/NC(=O)Cn2nc(C)c([N+](=O)[O-])c2C)o1	-10%	-4%
COC(=O)Cc1ccc(NC(=S)NCc2ccc(OC)cc2)cc1	1%	3%
Cc1ccc(CN2CC(C(=O)N3CCN(S(=O)(=O)c4ccc(C(C)C)cc4)CC3)CC2=O)cc1 (configuration not stated)	?	-23%
C[C@H](NC(=O)c1[nH]cnc1C(=O)N[C@@H](C)CO)c1ccccc1	-8%	-15%
CC(=O)N(/N=C1\Sc2ccccc2C1=O)c1ccc(C)cc1C	0%	-8%
CCc1ccc(OCc2nc(-c3ccccn3)no2)c(Br)c1	-12%	-3%
O=C(CSc1ccccn1)c1ccc(F)cc1	-7%	i
CCOC(=O)c1ccc2c(c1)NCc1cccc(OC)c1O2	-23%	-23%
CN(C)Cc1nc2ccccc2c(=O)n1Cc1nc(-c2cc3ccccc3o2)cs1	-21%	-2%
Nc1nc(NCc2cccc(Cl)c2)c2[nH]cnc2n1	-18%&-11%	-19%&9%
CN(C)N1C(N)=C(C#N)C(c2ccc(F)cc2)C2=C1CC(C)(C)CC2=O (configuration not stated)	-9%	-18%
COc1ccc(N2CCN(C(CNC(=O)C(=O)NCCCn3ccnc3)c3cccnc3)CC2)cc1 (configuration not stated)	-10%	i
C[C@H](NC(=O)OC(C)(C)C)c1nnc(SCC(=O)Nc2cccc(Cl)c2)o1	-15%[7.34 µM]	-17%[7.34 µM]
COc1ccc(C(=O)Nc2ccc(NC(=O)c3ccccc3OC)nc2)cc1	-2%	-3%
CN(CCc1ccccn1)C(=S)Nc1ccc(Cl)cc1Cl	-2%	i
O=C(OCc1ccccn1)C1CCN(C(=O)c2ccc(Cl)cc2)CC1	2%	-11%
CCNC(=O)N(C)c1c(CC)nc2ccc(C(=O)N3CCN(C(C)=O)CC3)cn12	-5%	3%
COc1ccc(NC(=O)CCN2CCN(S(=O)(=O)c3cc(Cl)ccc3Cl)CC2)cc1	?	-7%
CCCNC(=O)c1cc(C2CCCCN2C(=O)CCCc2ccccc2)on1 (configuration not stated)	-26%	-14%
CC(=O)Nc1ccc(NC(=O)c2ccc(N(C)S(=O)(=O)c3ccc(C)cc3)cc2)cc1	-17%	-24%
COCCn1c(=NC(=O)/C=C/c2cccs2)sc2cc(NC(C)=O)ccc21	-9%	-22%
CC(C)(C)C1CCN2CCC[C@](c3ccccc3)(C1)[C@@]21CO1 (some centres not stated)	-5%	6%
COc1ccc(C2CC(c3ccccc3)=NN2C(=O)COC(=O)c2cc(S(=O)(=O)N3CCOCC3)ccc2Cl)cc1 (configuration not stated)	-13%	-12%
CC(=O)CCc1c(C)[nH]c2ccccc2c1=O	7%	-8%
c1ccc(CCNC2=NCCCS2)cc1	-4%	i
CCN(c1ccccc1)S(=O)(=O)c1cc(NC(=O)COC(=O)C2CC2)ccc1Cl	-4%	-1%

# Other records follow:
compound	VACV Venus inh	Vaccinia mCherry
CCN(CC)c1cccc(OC(=O)c2cccnc2Cl)c1	-3%	-7%
Cn1c(SCC(=O)Nc2ccc(NC(=O)c3cccc(F)c3)cc2)nnc1-c1ccncc1	-4%	i
CCN1C(=O)[C@H]2[C@@H](c3ccc(C)cc3)N3C(=O)N(c4cccc(Cl)c4)C(=O)[C@@]3(CC(C)C)[C@H]2C1=O	-12%	-30%
Cc1ccnc(NC(=O)C2CCN(S(=O)(=O)c3ccc4c(c3)CC(C)N4C(=O)C3CCC3)CC2)c1 (configuration not stated)	-30%	-2%
COC(=O)c1cccc2c1C(=O)c1cc([N+](=O)[O-])ccc1-2	-15%	-8%
Cc1cccc(-c2nc(SCC(=O)Nc3ccc4c(c3)OCO4)c(-c3ccccc3)[nH]2)c1	-20%	-23%
CN1CCN(CCOc2cccc(Cl)c2)CC1	-4%	-9%
C=CCn1c(SCn2nnc3ccccc3c2=O)nc2scc(-c3cccs3)c2c1=O	-8%	-4%
Clc1ccc(-c2nc3ccc(Cl)cn3c2CN2CCCCC2)cc1	-10%	-10%
CCOCCCNC(=O)c1ccc(OC2CCN(C(C)=O)CC2)c(OC)c1	-15%	-16%
COc1ccc(OCCSc2nnc(-c3ccc(OC)cc3)n2N)cc1	-13%	.
CC(C)(C)OC(=O)N1CCC[C@H]1c1nnc(SCc2ccccc2F)o1	-12%	.
O=C(NCc1ccccc1)C(c1ccc(C(F)(F)F)cc1)n1c(=O)c(-c2cc3ccccc3[nH]2)nc2ccccc21 (configuration not stated)	?	?
CCc1ccc(S(=O)(=O)NC(=S)NC2CCCCC2)cc1	-19%	i
COc1cccc(Nc2nc(C(N)c3ccccc3)cs2)n1 (configuration not stated)	-10%	4%
CCN1C(=O)c2ccccc2Sc2ccc(NC(=O)c3ccc(C)c(F)c3)cc21	-30%	?
CCOC(=O)[C@]12CCC=C1N(Cc1ccco1)C(=O)[C@H](CC(=O)NCc1ccc(OC)c(OC)c1)C2	-4%	37%[activator]
C=CCn1c(=O)c2c3c(sc2n2c(Nc4ccccc4)nnc12)CCCC3	-26%	?
S=C1N(c2ccccc2)C(c2ccc(Br)cc2)N2CCCN12 (configuration not stated)	-5%	-13%
COc1ccc(N2CC(NC(=O)c3ccco3)CC2=O)cc1OC (configuration not stated)	-6%	-4%
Cc1cccc(C)c1OCC(=O)OC/C(O)=C(\C#N)c1nc2ccccc2[nH]1	-15%	-13%
CN(C)/C=C(/C(=O)c1ccccc1)S(=O)(=O)c1ccc(Cl)cc1	-9%	-13%
CCOc1ccc(/C=N/NC(=O)CSc2n[nH]c(=O)[nH]c2=O)cc1OC	-2%	i
Cc1ccc(-c2csc(N3CCC[C@@H]3C(=O)NCCn3c(C(F)(F)F)nc4ccccc43)n2)cc1	?	?
CC1=CC(C)(C)N2C(=O)C3(C(C#N)=C(N)Oc4cc(C)oc(=O)c43)c3cccc1c32 (configuration not stated)	-26%	.
CCS(=O)(=O)N1CCC(C(=O)NCCCN2CCCC2)CC1	6%	-4%
COc1ccc(N2CCN(Cc3nc4c(c(=O)[nH]c(=O)n4C)n3CCCc3ccccc3)CC2)cc1	-14%	-20%
COc1ccccc1NC(=O)CCc1nnc2ccc(N3CCC4(CC3)OCCO4)nn12	-18%	i
CCCOc1c(Cl)cc(/C=N/O)cc1OCC	-26%	.
Cc1ccc(/C=C2/SC(=S)N(C3CCCCC3)C2=O)o1	-1%	0%
O=S(=O)(Nc1ccc(Cl)cc1)c1ccc(NS(=O)(=O)c2ccc3c(c2)OCCO3)cc1	-9%	i
O=C(COc1ccc2ccccc2c1)NC1CC(=O)N(c2cccc(F)c2)C1 (configuration not stated)	-5%	-14%
CCOc1ccc(C2C(C(=O)Nc3ccc(Cl)cc3)=C(C)Nc3nc(C(F)(F)F)nn32)cc1 (configuration not stated)	?	-29%
CCC(C)Nc1nc2c(c(=O)n(C)c(=O)n2C)n1Cc1ccc(F)cc1 (configuration not stated)	-18%	i
CCS(=O)(=O)Nc1ccc(-c2cn3c(C)csc3n2)cc1	-16%[7.34 µM]	-17%[7.34 µM]
COc1cc(C(=O)NCC(=O)OCCN2C(=O)c3ccccc3C2=O)cc(OC)c1OC	-23%	i
CC(=O)c1ccc(S(=O)(=O)Nc2ccc(-c3ccc4nnc(C)n4n3)cc2)cc1	-17%	i
Cc1ccc(C)c(NC(=S)NC23CN4CN(CN(C4)C2)C3)c1	-2%	-10%
COC(=O)C1CCN(S(=O)(=O)CCNC(=O)c2ccc3c(c2)OCO3)CC1	-2%	-21%
CC(C)(C)n1c(O)c2ccc(C(=O)N=NC(=O)c3ccccc3)cc2c1O	-12%	0%
O=C(Nc1cc(C(=O)N2CCCC2)ccc1N1CCCC1)c1ccccc1	6%	-1%
Cc1cccc(C(=O)Nc2ccc(NC(=O)c3cccc(C)c3)cc2)c1	-10%	-21%
CCOC(=O)C1(C)CCN1C(=O)c1cc(OC)ccc1Br (configuration not stated)	3%	2%
Cc1ccc(C(=O)NCCc2nnc3ccc(NCc4ccc5c(c4)OCO5)nn23)cc1	-25%	-9%
CCCn1nc(C(=O)NNC(=O)Cc2ccc(S(=O)(=O)N3CCOCC3)s2)c2ccccc2c1=O	-22%	i
Cc1ccc(SC[C@H](CC(C)C)N2CCN(C)CCC2=O)cc1	-2%	i
CCSC1=C(C#N)C(c2cccc(O)c2)CC(=O)N1 (configuration not stated)	-10%	i
C=CCn1c(O)c(/C=N/N2CCCCC2c2cccnc2)c(=O)[nH]c1=S (configuration not stated)	-2%	-9%
CC(C)c1ccc2occ(CC(=O)Nc3ccccc3Cl)c2c1	-6%	-4%
CCC(C)[C@H](NC(=O)N1CCn2c1nc1ccccc12)C(=O)NCCc1ccccc1 (some centres not stated)	-23%	?

# More structures follow:
compound	VACV Venus inh	Vaccinia mCherry
CCCN1CCC(N(C)CCc2ccc(OC)c(OC)c2)CC1	-16%	-19%
Cn1cc(CCC(=O)N2CCCC(C(=O)c3cccc4ccccc34)C2)cn1 (configuration not stated)	-8%	i
CCCCN(C)CCCNC(=O)Cn1ncc2c3ccccc3n(Cc3cc(C)ccc3C)c2c1=O	-25%	-5%
Cc1ccccc1-n1c(C)nnc1SC(C)C(=O)NCc1ccco1 (configuration not stated)	-16%	-26%
C=CCn1c(SC(C)C(=O)Nc2ccc(F)c(F)c2F)nnc1C1CC1 (configuration not stated)	-11%	i
O=C(NC(Cc1ccccc1)C(=O)O)c1cccnc1Cl (configuration not stated)	-10%	i
CN(C)C(=O)N1CCN(S(=O)(=O)c2ccc3ccccc3c2)CC1	-13%	-10%
O=C1C2C3C=CC(C4CC34)C2C(=O)N1/N=C/c1ccc(-c2ccc([N+](=O)[O-])cc2)o1 (configuration not stated)	1%	-28%
CC(=O)Nc1ccc(OCC(=O)NCCc2ccccc2)cc1	-11%	i
CCCc1oc2ccc(NS(=O)(=O)c3ccc(OCC)cc3)cc2c1C(=O)OCC	-25%[7.34 µM]	-27%[7.34 µM]
CN(C(=O)c1cnn(-c2nccc(-c3ccccc3C(F)(F)F)n2)c1C1CC1)C1CCOC1 (configuration not stated)	-9%	-10%
